Bioassay records deposited in PubChem BioAssay by National Center for Advancing Translational Sciences (NCATS).
SARS PLpro yeast – qHTS of Yeast-based Assay for SARS-CoV PLP | S. cerevisiae expressing SARS-CoV PLpro, growth rescue; control for the full effect not named in the record | Potency, µM (series often up to 32.9 µM), for inactives: top-dose activity, positive = growth rescue | hit rate 0.19% among 330,000; active means well fitted rising curve with a large enough effect; inconclusive means small, poorly fitted or top-dose-only effect; inactive means no such curve, though single readings can be large or run the other way; note: 0% is about no effect; nearly all actives have a fitted effect of over 55% in size; growth read by luminescence after 48 h
Cruzain inh Det – qHTS Assay for Promiscuous and Specific Inhibitors of Cruzain (with detergent); Potency, µM, inactives show max response, negative = inhibition, most hits filed as inhibitors; AID 1478, 2009; hit rate 0.43% among 200,000; purified cruzain, Z-FR-AMC fluorescence, 0.01% Triton; Cruzipain (Trypanosoma cruzi), P25779;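 note: plate controls were neutral wells for no effect and buffer without enzyme for full effect; nearly all actives have a fitted effect of over 40% in size; top concentration of the series not given in the record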
Target sequence (P25779 123-467 limits assumed): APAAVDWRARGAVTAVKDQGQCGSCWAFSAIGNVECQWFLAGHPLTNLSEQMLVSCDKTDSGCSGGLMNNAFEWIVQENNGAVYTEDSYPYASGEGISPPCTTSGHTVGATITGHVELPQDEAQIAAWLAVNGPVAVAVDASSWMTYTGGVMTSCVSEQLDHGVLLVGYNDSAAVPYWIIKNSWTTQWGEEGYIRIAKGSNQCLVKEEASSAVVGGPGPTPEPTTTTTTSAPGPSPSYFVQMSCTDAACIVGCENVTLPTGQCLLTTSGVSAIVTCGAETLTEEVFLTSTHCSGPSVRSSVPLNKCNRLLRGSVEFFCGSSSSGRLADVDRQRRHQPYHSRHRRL
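Compounds were screened in titration against cruzain (1.5 nM) with 0.01% Triton X-100 to counter colloidal aggregation. Activity was the AMC fluorescence increase over 60 s after adding 2 uM Z-FR-AMC at pH 5.5.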
Marburg entry inh – qHTS for inhibitors of binding or entry into cells for Marburg Virus | Marburg virus pseudotyped entry inhibition, cell reporter; control for the full effect not named in the record; about a third of the inactives were read at about 46 µM | Potency, µM (titrated, usually from 37.8 µM), without a hit: at the highest dose activity change, negative = inhibition, actives largely listed as inhibitors | hit rate 1.8% among 300,000; active = well fitted inhibition curve with a large enough effect; inconclusive = small, poorly fitted or top-dose-only effect, or effect the other way; inactive = flat fitted curve, though single readings scatter; tested in HEK293 cells; about a fifth of its hits are not listed in these tables; note: % is set by controls: 0 for no effect and ±100 for the full control effect; luciferase read-out
Lassa entry inh – qHTS for Inhibitors of binding or entry into cells for Lassa Virus | Lassa virus pseudotype entry inhibition, cell reporter; control for the full effect not named in the record | Potency, µM (highest dose often 37.9 µM), for inactives: top-dose activity change, negative = inhibition, hits mostly inhibitors | hit rate 1.2% among 300,000; active means well fitted inhibition curve with a large enough effect; inconclusive means small, poorly fitted or top-dose-only effect, or effect the other way; inactive means flat fitted curve, though single readings scatter; tested in HEK293 cells; note: % is set by controls: 0 for no effect and ±100 for the full control effect; nearly all actives have a fitted effect of over 50% in size; luciferase read-out
NS1 inh – qHTS Assay for Inhibitors of Influenza NS1 Protein Function; S. cerevisiae slowed by influenza A NS1, growth recovery by OD600; Potency, µM (top dose mostly 46.1 µM), without a hit: at the highest dose activity, positive = more growth; hit rate 0.4% among 270,000; AID 2326, 2010; active means well fitted rising curve with a large enough effect; inconclusive means small, poorly fitted or top-dose-only effect; inactive means no such curve, though single readings can be large or run the other way; note: nearly all actives have a fitted effect of over 50% in size
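Read-out: OD600 growth recovery of NS1-expressing budding yeast. Cells grown overnight at 30C in -URA glucose medium, washed, resuspended and diluted 1:100 in 2% galactose assay medium, pH 6.0. Same strain lacking NS1 served as positive control.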
2A StopGo – High Throughput Screening for Foot and Mouth Disease Virus Antivirals | human cells with a luciferase reporter of 2A StopGo recoding; control for the full effect not named in the record | hit rate 1.2% among 410,000 | AID 1159524, 2015 | Potency, µM (series often up to 57.9 µM), for inactives: at the top dose signal change, negative = less light; active = well fitted falling curve with a large enough effect; inconclusive = small, poorly fitted or top-dose-only effect; inactive = no such curve, though single readings can be large or run the other way; tested in HEK293T cells; note: % is set by controls: 0 for no effect and ±100 for the full control effect; nearly all actives have a fitted effect of over 45% in size; luciferase light after 4 h
RE007 growth inh – qHTS Assay for Inhibitors of the HIV-1 protein Vpr; S. pombe RE007 Vpr strain, BacTiter-Glo ATP luminescence, 24 h; control for the full effect not named in the record; Potency, µM (series often up to 92.2 µM), for the others: at the top dose activity change, negative = less growth; hit rate 0.21% among 360,000; active = well fitted falling curve with a large enough effect; inconclusive = small, poorly fitted or top-dose-only effect; inactive = no such curve, though single readings can be large or run the other way;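 note: % is set by controls: 0 for no effect and ±100 for the full control effect; nearly all actives have a fitted effect of over 50% in size; the assay follows cell death caused by Vpr and the record does not say whether a fall means rescue or toxicity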
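Fission yeast RE007 carrying one integrated HIV-1 vpr copy, seeded at OD 0.01 in PMG+AL medium with 23 nL pinned compound. Grown 24 h at 30 degrees; viability read by BacTiter-Glo luminescence after 5 min.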
Cruzain inh noDet – qHTS Assay for Promiscuous and Specific Inhibitors of Cruzain (without detergent); Cruzipain (Trypanosoma cruzi), P25779; purified cruzain, Z-FR-AMC fluorescence, no detergent; Potency, µM, inactives show max response, negative = inhibition, usual class: inhibitors; hit rate 2.3% among 200,000; AID 1476, 2009;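 note: plate controls were enzyme without inhibitor for no effect and buffer without enzyme for full effect; nearly all actives have a fitted effect of over 40% in size; top concentration of the series not given in the record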
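Detergent-free condition (0.00005% Triton X-100) in acetate buffer pH 5.5 with DTT. 1.5 nM enzyme and compound were pre-mixed 15 min, then 2 uM Z-FR-AMC substrate added; reaction progress from fluorescence change between first and third reads (60 s).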
Active calls of the source: *; ? = inconclusive; nt = no result given; & = joins results of further samples; [ ] = dose if it differs, or a comment. Unless noted, calls come from the whole dose curve; as a rule, active = well fitted curve in the direction sought with a large enough effect; inconclusive = small, poorly fitted or top-dose-only effect, or another doubt; inactive = no such curve, though single readings can be large; an effect the other way counts as inactive or inconclusive. Potency is the fitted concentration of half-maximal effect.

SMILES | SARS PLpro yeast | Cruzain inh Det | Marburg entry inh | Lassa entry inh | NS1 inh | 2A StopGo | RE007 growth inh | Cruzain inh noDet
O=C1c2ccncc2C(=O)N1CO | -1% | 2.9% | ? | 14% | 4% | -10% | 2% | 5%
O=C(CSc1n[nH]c(-c2cccnc2)n1)Nc1ccccc1C(F)(F)F | 4% | nt | 7%[46.1 µM] | 3% | 13% | -5% | -2% | nt
Cc1ccc2nc(NC(=O)CS(=O)(=O)Cc3ccccc3)sc2c1 | -1% | nt | 1%[46.1 µM] | -11% | -3% | 0% | -10% | nt
CCOC(=O)c1cc([N+](=O)[O-])sc1N | -7% | nt | -5%[46.1 µM] | 10%[46.1 µM] | nt | 17% | -20% | nt
CC(C)NC(=S)N/N=C/c1ccc(N2CCOCC2)cc1 | 6% | -7.1% | nt | nt | 4% | -26% | -15% | -4%
CCCNC(=O)NCCC12CC3CC(CC(C3)C1)C2 | -15% | nt | 0%[46.1 µM] | 2.5µM* | nt | 20% | 24% | nt
O=C(Nc1ccccn1)N1CCOCC1 | 23% | 0.4% | ? | 2% | 0% | 17% | 6% | -11%
CN(/N=C/c1ccncc1)C1=NCCN1 | -1% | nt | ? | -13% | 4% | 3% | -4% | nt
N#Cc1ccc(CSc2nnc(NC(=O)CN3C(=O)C4CC=CCC4C3=O)s2)cc1 (stereo not drawn) | 1% | -6.5% | -2%[46.1 µM] | -27% | -14% | -14% | -6% | -22%
O=C1CC(c2ccccc2)CN1C(=O)c1cncc(Br)c1 (stereo not drawn) | 0% | nt | 4%[46.1 µM] | 3% | -6% | -5% | -12% | nt
O=C1CN(c2ccccc2Cl)C(=O)CN1c1ccccc1Cl | -2% | -0.7% | -7% | 3% | -2% | -5% | -13% | 0%
CC(C)[C@H](NC(=O)c1ccc(Cl)cc1Cl)C(=O)NNc1cccc(C(=O)O)c1 | -1% | nt | ? | 23% | nt | 16% | 8% | nt
CCCSc1oc(-c2ccco2)nc1S(=O)(=O)c1ccccc1 | -15% | -3.8% | ? | 0% | -52% | nt | 3% | -18%
CC(C)c1nnc(NC(=O)CCS(=O)(=O)c2ccccc2)s1 | 2% | nt | -9%[46.1 µM] | 0% | -2% | 22% | 5% | nt
O=C(NCc1ccccc1)c1ccc(CS(=O)(=O)Cc2ccc(F)cc2)o1 | ? | nt | nt | nt | 4% | -8% | 2% | nt
COC(=O)c1nnn(CC(=O)NC(=O)Nc2c(C)cccc2C)c1C(=O)OC | -19% | -1.7%&2.5% | -6%[46.1 µM] | -1%[46.1 µM] | -11% | -25%&-10% | -27% | 0%&8%
COc1ccc(-c2cc(OC(=O)c3ccc(F)cc3)c3c(C)oc(C)c3c(=O)c2)cc1 | -7% | -2.6% | nt | nt | -7% | nt | nt | -9%
CC(=O)c1cnc(Nc2nc(C)c3ccccc3n2)nc1C | -1% | -2.3% | 1% | nt | ? | nt | nt | -4%
O=S(=O)(NC1CC1)c1ccc(F)c(F)c1 | -6% | nt | 6%[46.1 µM] | 8% | 3% | 50%[activator] | 4% | nt
O=C1c2c(O)cc(O)cc2O[C@@]12c1c(cc(O)c3c1O[C@H](c1ccc(O)cc1)[C@@H](O)C3)O[C@@H]2c1ccc(O)cc1 | -2% | -5.1% | 13% | -14% | 13% | -7% | 7% | -1%
CCOc1ccc(S(=O)(=O)NCCC(=O)Nc2nnc(C)s2)cc1 | 2% | nt | 0%[46.1 µM] | -11% | -8% | 11% | -2% | nt
CCOC(=O)CC1C(=O)NCCN1Cc1cccc(OC)c1 (stereo not drawn) | -12% | -1.0% | nt | nt | -2% | -8% | -10% | 7%
COc1cccc(C(=O)Nc2ccc3[nH]c(=O)[nH]c3c2)c1OC | 3% | nt | -15%[46.1 µM] | nt | 5% | 41%[activator] | -7% | nt
COc1ccc(OC)c(C(=O)CSc2nnc(-c3cccs3)o2)c1 | 1% | -7.6% | -15% | 0% | -6% | nt | 4% | 0%
Cc1ccc(S(=O)(=O)N2CCOCC2)cc1C(=O)NCc1ccco1 | 19% | 7.9% | ? | ? | -2% | -10% | -7% | 9%
CCCn1c(N)c(C(=O)CSc2nnc3ccccn23)c(=O)[nH]c1=O | 1% | nt | 28% | 11% | nt | -15% | -11% | nt
COc1ccc(C(=O)Nc2cc(C(=O)NCCc3ccccc3)ccc2Cl)cc1 | -7% | 2.6% | -16% | -6% | -10% | nt | 0% | -2%
CN(C(=O)c1ccc(S(=O)(=O)N2CCCC2)cc1)C1CCS(=O)(=O)C1 (stereo not drawn) | -1% | nt | 12% | 5% | nt | -15% | -10% | nt
CCOC(=O)c1c(NC(=O)CSc2ncccn2)sc2c1CC(C)(C)NC2(C)C | ? | nt | ? | -2%[46.1 µM] | -1% | 18% | -2% | nt
O=C(Nc1ccc2c(c1)CCC2)c1cc(=O)[nH]c2ccccc12 | 0% | nt | 6%[46.1 µM] | -20% | 1% | -3% | -11% | nt
CCCOc1ccc(-c2c(C(=O)N/N=C/c3ccc(OCC)cc3)nnn2-c2nonc2N)cc1 | 6% | -15% | 6% | 10% | 14% | -6% | nt | 10µM*
COc1ccc(NC(C)=O)cc1NC(=O)CN1CCN(C2c3ccccc3-c3ccccc32)CC1 | 3% | -8.5% | ? | ? | -200% | 32µM* | ? | ?
O=C(O)COc1ccccc1/C=N/NC(=O)c1cc2ccccc2cc1O | 0% | nt | nt | nt | 11% | 3% | 17% | nt
COc1ccccc1N1CCN(S(=O)(=O)c2c(C(=O)N3CCOCC3)c(C)n(C)c2C)CC1 | 1% | nt | nt | nt | -8% | -7% | 15% | nt
CN(CC(=O)Nc1cccc(F)c1)CC(=O)Nc1cccc([N+](=O)[O-])c1 | 0% | nt | -19% | nt | nt | -25% | 12% | nt
Cn1c(=O)[nH]c(=O)c2c1nc(N1CCN(c3ccccc3)CC1)n2CCSc1ncccn1 | 10% | 6.8% | 5% | nt | -7% | -26% | 7% | 3%
Cc1ccc2nc(SCc3cn4cccnc4n3)[nH]c2c1 | 3% | -0.3% | 41% | 9% | 15% | 33%[activator] | -6% | 15%
Cc1cccc(CN2C(=O)c3ccccc3Sc3ccc(C(=O)NCCCN4CCOCC4)cc32)c1 | 1% | 0.6% | nt | -13%[46.1 µM] | -1% | -11%&-14% | 12% | -4%
Cc1ccc(SCCC(=O)Nc2ccccc2Br)cc1 | -1% | nt | nt | nt | -6% | 47%[activator] | 0% | nt
CCc1ccc(NC(=O)Cn2c(=O)n(CC3CCCO3)c(=O)c3cc(OC)c(OC)cc32)cc1 (stereo not drawn) | nt | -2.6% | 0%[46.1 µM] | -23%[46.1 µM] | nt | -7% | nt | 9%
COc1ccc(Br)cc1CNC(=O)Cn1nc(C)n2c(cc3cc(F)ccc32)c1=O | nt | 1.2% | 6%[46.1 µM] | nt | nt | -16% | nt | -7%
O=C(Nc1ccc(CN2CCOCC2)cc1)c1ccc(F)cc1 | 3% | nt | nt | nt | 3% | 59%[activator] | -5% | nt
CC(=O)Nc1ccc(/C=N/NC(=O)c2cc3cc(C)ccc3nc2C)cc1 | -3% | 5.2% | -17% | 25% | 1% | -1% | 3% | -6%
C=Cc1ccc(Cn2c(C)c(CNCc3ccc(SC)cc3)c(C(=O)O)c2C)cc1 | nt | -3.5% | 10%[46.1 µM] | 0%[46.1 µM] | nt | -1% | nt | 3%
O=C(c1cccs1)N1CCC(N2CCN(c3ccccc3)CC2)CC1 | 2% | -11% | -28%&-28%[46.1 µM] | -12% | -4%[9.22 µM] | 0% | -6% | -4%
COc1ccccc1OCc1nc2ccccc2[nH]1 | 2% | 2.8% | -4% | 12% | -14% | 39%[activator] | 1% | -19%
CCOCCn1c(=NC(=O)c2ccc3c(c2)OCCO3)sc2cc(OCC)ccc21 | nt | 0.4% | nt | 2%[46.1 µM] | nt | -13% | nt | -3%
CC(=O)OC[C@H]1O[C@@H](O/N=C/C[C@@H]2C=C[C@H](OC(C)=O)[C@@H](COC(C)=O)O2)[C@H](OC(C)=O)[C@@H](OC(C)=O)[C@@H]1OC(C)=O | 8% | 0.3% | 8% | 10% | -32% | nt | nt | ?
COc1cc(CCCN2C(=S)NC[C@@H]2CC2CCCCC2)cc(OC)c1OC | 0% | nt | nt | nt | -3% | -9% | -1% | nt
O=C(Nc1ccc(O)cc1)c1ccc2c(c1)C(=O)N(Cc1ccco1)C2=O | 14% | -11% | -3% | 1% | 24% | -20% | 7% | -16%
Further compounds.
SMILES | SARS PLpro yeast | Cruzain inh Det | Marburg entry inh | Lassa entry inh | NS1 inh | 2A StopGo | RE007 growth inh | Cruzain inh noDet
O=C(NNC(=S)Nc1cccc2ccccc12)c1cccc(Br)c1 | 20% | -5.0% | 5% | ? | -50% | 32%[activator] | -6% | -2%
O=C(COC(=O)C1=COCCO1)Nc1ccccc1OC(F)F | 0% | nt | 2%[46.1 µM] | 22% | 0% | -14% | 4% | nt
Cc1ccc(-c2csc(/C(C#N)=C/c3ccccc3Cl)n2)cc1 | nt | -3.9% | nt | 24%[46.1 µM] | nt | 24% | nt | ?
COCCNc1ccc(S(=O)(=O)N2CCCC2)cc1[N+](=O)[O-] | 1% | nt | -12%[46.1 µM] | 0%[46.1 µM] | 5% | -18% | -14% | nt
Cn1c(=O)c2cc(S(=O)(=O)NC(C(=O)NCc3ccccn3)c3ccccc3)ccc2n(C)c1=O (stereo not drawn) | 15% | 2.8% | -1% | nt | 1% | -26% | 3% | 2%
CC(C)(C)[C@@H]1C=C(C(=O)N2CCN(Cc3ccccc3)CC2)O[C@H](OCCCCO)C1 | 1% | nt | nt | nt | -3% | -15% | -13% | nt
CCOC(=O)c1ccc(NC2=CC(c3ccc(OCC)cc3)N(c3ccc(C(=O)OCC)cc3)C2=O)cc1 (stereo not drawn) | nt | -2.8% | 18%[46.1 µM] | -1%[46.1 µM] | nt | -17% | nt | -9%
COc1ccc(C2C(C(C)=O)=C(C)Nc3ncnn32)cc1OC (stereo not drawn) | -5% | 4.4% | 13% | 12% | -2% | -15% | 2% | -7%
N#Cc1c(-c2c(Cl)cccc2Cl)noc1/C=C/Nc1ccc(C(=O)O)cc1 | 3% | nt | nt | nt | 0% | 8% | 0% | nt
CN1CCN(C(=O)c2ccc(COc3ccc(Cl)cc3Cl)cc2)CC1 | -3% | 1.8% | -8% | 25% | -59% | nt | 30% | -7%
